# HSD17B inhib: qHTS Assay for Inhibitors of HSD17B4, hydroxysteroid (17-beta) dehydrogenase 4; 3-hydroxyacyl-CoA dehydrogenase type-2 (Homo sapiens), Q99714; recombinant HSD17B10, NADH fluorescence kinetic; many of its hits are not listed in these tables; Potency, µM (series often up to 57.1 µM), inactives show at the highest dose activity change, negative = inhibition, usual class: inhibitors; 75,000 tested, 7.6% active; AID 893, 2007; active means well fitted inhibition curve with a large enough effect; inconclusive means small, poorly fitted or top-dose-only effect; inactive means no such curve, though single readings can be large or run the other way;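 further: the protocol describes HADH2 (HSD17B10) and not the HSD17B4 of the title; nearly all actives have a fitted effect of over 70% in size; most hits overshoot -100% by far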
#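 His-tagged E. coli-expressed HADH2 at 20 nM in 100 mM Tris-HCl pH 9.0 with 0.01 % Tween-20, preincubated 15 min with compound at room temperature. Reaction with 1 mM NAD+ and 90 uM beta-hydroxybutyryl coenzyme A; NADH fluorescence (360/450 nm) read kinetically over 4 min, last minus first point.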
# Active calls of the source: *; ? = inconclusive; [ ] = remark or other dose. On the % scale 0 is the no-effect control and ±100 the full control effect; potency means the concentration at half of the fitted maximal effect.
SMILES,HSD17B inhib
CC1CN(S(=O)(=O)c2ccc(C(=O)Nc3sc4c(c3C(N)=O)CCN(C)C4)cc2)CC(C)O1 (stereo unspecified),1.9%
CCN1CCCC1CN(Cc1cc2cc(OC)ccc2[nH]c1=O)C(=O)NCc1ccccc1 (stereo unspecified),25.1µM*
Cc1nc2cnc(N(C)C)nc2n(Cc2ccc(F)cc2)c1=O,31.6µM*
Cc1cccc(N2CCN(C(=O)CCCn3c(=S)[nH]c4cc5c(cc4c3=O)OCO5)CC2)c1C,-17.4%
COc1ccc(C2CC(=O)N3C(=C2C#N)SCC3(O)c2ccccc2)cc1 (stereo unspecified),301.1%[activator]
CS(=O)(=O)c1nc(-c2ccccc2)cc(C(F)(F)F)n1,?
COCC(=O)Nc1nnc(COc2ccccc2)s1,-1.9%
CCOC(=O)c1ccc(CNC(=O)c2cc(C(C)(C)C)oc2C)o1,-3.6%
CCN(CC)c1ccc(NC(=O)Nc2ccc(C(C)=O)cc2)cc1,2.0%
O=C(CN1C2=NCCN2c2ccccc21)c1ccco1,1.6%
COc1cccc(C2C(C#N)=C(N)OC(C(C)(C)C)=C2C#N)c1 (stereo unspecified),?
Cc1ccc(S(=O)(=O)c2c(N)n(C)c3nc4ccccc4nc23)cc1,25.1µM*
C=C[C@](C)(O)CCC1C(=C)CC(OC(C)=O)C2C(C)(C)CCCC12C (stereo partly specified),-3.4%
Cc1c(NC(=O)CSc2ccccc2C(=O)Nc2cccnc2)c(=O)n(-c2ccccc2)n1C,1.3%
Cc1nc2cnc(N3CCOCC3)nc2n(C[C@H]2CCCO2)c1=O,?
Cc1ccn2cc(-c3ccc(S(=O)(=O)N4CCOCC4)cc3)nc2c1,25.1µM*
CN1CCN(C(c2cccc(C(F)(F)F)c2)c2nnnn2Cc2ccccc2)CC1 (stereo unspecified),9.6%
Cc1cccc(NC(=O)C(NS(=O)(=O)c2ccc3c(c2)CCC(=O)N3)c2ccccc2)n1 (stereo unspecified),-13.4%
CCOC(=O)C1=C(C)NC(C)=C(C(=O)OCC)C1c1cc2ccc(C)cc2[nH]c1=O,25.1µM*
COc1ccc(S(=O)(=O)N2CCC(C(=O)N3CCOCC3)CC2)cc1,3.7%
CSc1ccccc1C(=O)N1CCOCC1,5.6%
CC(Sc1ccccc1)C(=O)Nc1ccc(S(=O)(=O)N2CCOCC2)cc1 (stereo unspecified),14.3%
CCCCCn1c(CN2CCN(Cc3ccccc3)CC2)nc2c1c(=O)n(C)c(=O)n2C,5.3%
O=C(c1c[nH]c2ccc(S(=O)(=O)N3CCOCC3)cc2c1=O)N1CCN(c2ccccn2)CC1,25.1µM*
CCCn1c(C(C)NC(C)=O)nc2ccccc21 (stereo unspecified),6.4%

# The listing continues.
SMILES,HSD17B inhib
O=C(O)c1cc2c([nH]c1=O)CCCC2,31.6µM*
O=C(CSc1nnc(CN2CCOCC2)n1-c1ccccc1)Nc1ccc(Cl)cc1,5.8%
Cc1ccc(S(=O)(=O)N2CCCC(C(=O)O)C2)s1 (stereo unspecified),14.1%
COc1ccc(-n2c(=O)c(CCc3ccccc3)nc3cnc(N4CCOCC4)nc32)cc1,?
CC(O)CCc1nc2ccc(C(=O)O)cc2[nH]1 (stereo unspecified),-13.5%
Cc1cccc2cc(CN(Cc3cccs3)C(c3nnnn3C3CCCC3)C(C)C)c(=O)[nH]c12 (stereo unspecified),?
Oc1ccc(C=NCC2COc3ccccc3O2)cc1 (stereo unspecified),?
COC(=O)NC(c1ccco1)[C@@]1(C(=O)OC)CCCC1=O (stereo partly specified),5.0%[11.4 µM]
COc1ccccc1N1CCN(C(c2ccc(Cl)cc2)c2nnnn2C(C)(C)C)CC1 (stereo unspecified),20.7%
Cn1cccc1Cc1nnc(SCC(=O)Nc2cccc(Cl)c2)n1-c1ccc(F)cc1,-4.6%
COc1cc(C2C3C(=O)N(Cc4ccccc4)C(=O)C3ON2c2ccccc2)cc(OC)c1OC (stereo unspecified),-0.6%
CC(=O)NC1=NC(=O)/C(=C/N2CCCCC2)S1,-1.1%
Cn1cccc1C(=O)OCC(=O)Nc1cc(C(C)(C)C)nn1-c1ccccc1,-1.9%
Cc1cc(C)c(C)c(S(=O)(=O)Nc2ccccc2C(=O)NCCCn2ccnc2)c1C,25.1µM*
COc1ccc(C2C(C(=O)Nc3ccc(F)cc3)=C(C)Nc3nc(CCCO)nn32)cc1 (stereo unspecified),-5.1%
CCOC(=O)C(NCc1ccc2c(c1)OCO2)(NC(=O)CC)C(F)(F)F (stereo unspecified),5.7%
CCOC(=O)C(Cc1ccc(O)cc1)NC(C)=O (stereo unspecified),4.7%
COC(=O)C1CCN(C(=O)CCCOc2ccccc2)CC1,0.5%
Cc1nc2ccccc2c(=O)n1NC(=O)c1ccc(F)cc1Cl,2.7%
CCCCSc1c(C)c2cc3c(cc2[nH]c1=O)OCO3,15.8µM*
COc1cccc(-c2ccc(=O)n(CC(=O)Nc3cc4c(cc3NC(C)=O)OCCO4)n2)c1,-7.1%
C=CCN(C(=O)Nc1ccc(F)cc1)C1CC(=O)N(c2ccc(OC)cc2)C1=O (stereo unspecified),3.8%
CCC(=O)N1c2ccccc2-c2nnc(SC)nc2OC1c1ccc(N(C)C)cc1 (stereo unspecified),-6.6%
COc1ccc(C(=O)OCCN2C(=O)c3ccccc3C2=O)cc1,1.6%
O=C(Nc1ccc(F)cc1)C1CCN(c2nnnn2-c2ccccc2)CC1,-0.6%

# Continued:
SMILES,HSD17B inhib
Cc1c(NC(=O)C(C)Sc2nc3ccccc3c(=O)n2CCO)c(=O)n(-c2ccccc2)n1C (stereo unspecified),-9.5%
CCc1ccc(N2CC(C(=O)Nc3cc(C)ccc3F)CC2=O)cc1 (stereo unspecified),7.9%
COc1ccccc1NC(=O)c1ccc(C)s1,1.2%
CC(=O)c1ccc(N2C(=NC(=O)C(C)C)SC3CS(=O)(=O)CC32)cc1 (stereo unspecified),2.4%
COc1ccc(OC)c(/C=N/c2oc(-c3ccco3)c(-c3ccco3)c2C#N)c1,25.1µM*
Cn1cc(Cl)c(-c2nc3ccccc3[nH]2)n1,-9.4%
CC(C)(C)NC(=O)CSc1n[nH]c(=O)n1-c1ccccc1,11.6%
CC(=O)c1ccc(OCC(O)CN2CCN(Cc3ccc4c(c3)OCO4)CC2)cc1 (stereo unspecified),11.1%
COc1ccc2c(c1)sc1nc(-c3ccccc3)cn12,-9.2%
O=S(=O)(c1ccccc1)N1CCC2(CCN(c3ccccc3)CC2)CC1,-9.3%
CC(C)[C@H](NC(=O)Nc1cccc(C(F)(F)F)c1)C(=O)O,4.4%
Cc1ccc2nc(Nc3nc(C)cc(C(F)(F)F)n3)nc(C)c2c1,0.4%
Nc1cccc(O)c1,1.4%
COc1cc2cc(Oc3ccc4ccc(=O)oc4c3)c(=O)oc2cc1O,67.0%[activator]
COc1cc(-c2noc(CCCC(=O)NCc3ccco3)n2)cc(OC)c1OC,-7.4%
CN(CC(=O)O)Cc1oc(CO)cc(=O)c1O,0.0%[11.4 µM]
CC(=O)Nc1ccc(-c2cn3ccsc3n2)cc1,1.6%
O=C(CN1CCCC1)NCC12CC3CC(CC(C3)C1)C2,-15.3%
CC1CCc2c(C(=O)NCCCN3CCOCC3)csc2C1 (stereo unspecified),4.2%
Cc1noc(C)c1S(=O)(=O)Nc1ccc(C(=O)N2CCc3ccccc3C2)cc1,7.7%
O=C(c1ccccc1)c1nnc(-c2ccccc2F)o1,1.2%
Cc1cc(C)nc(NC(=O)CSc2nnnn2-c2ccccc2)n1,1.4%
COc1ccc(C(OC(=O)c2c(C)noc2C)C(=O)NC2CCCC2)cc1 (stereo unspecified),6.9%
Cc1ccc(C)c(S(=O)(=O)Nc2ccc3scnc3c2)c1,-14.5%
Cc1cc(C)c2c(N)c(C(=O)NCc3ccco3)sc2n1,7.94µM*

# The results go on.
SMILES,HSD17B inhib
COc1nc2c(C)cccc2cc1-c1noc(-c2ccco2)n1,25.1µM*
CSc1nsc(SCC(=O)N2CCc3ccccc32)n1,?
Cc1noc(C)c1Cn1nc(C(=O)O)c2ccccc2c1=O,1.1%
CC(=O)N1[C@H](C)C=C[C@]1(Cc1ccccc1)C(=O)O,2.0%
O=C(Cn1cnc2c(nnn2Cc2ccccc2F)c1=O)NCc1ccco1,-5.2%
COCCn1c(SCC(=O)c2ccc3c(c2)OCCO3)nnc1-c1ccco1,-2.5%
O=C(O)C1C2C=CC(O2)C1C(=O)NCCCn1ccnc1 (stereo unspecified),7.4%
CCn1nnc(NC(=O)c2ccc(C(C)(C)C)cc2)n1,-10.1%
C/C(Cl)=C\Cn1c(=O)c2c(nc3n2CCS3)n(C)c1=O,2.6%
COc1ccc(OC)c(NC(=O)Nc2cccc(Cn3cccn3)c2)c1,-3.5%
Cc1ccc(C)c(C(=O)n2cnnc2N)c1,-2.4%
COc1ccccc1NCCC(=O)OCC(=O)Nc1ccc(Cl)cn1,-3.6%
CC(=O)NCc1nc2ccccc2n1C(C)C,8.3%
CCN(CC)CC#CC(C)OCOCC#CCOC (stereo unspecified),7.8%
Cn1ncc(Cl)c1C(=O)N1CCc2ccccc21,11.8%
CCOC(=O)CCNC(=O)Nc1ccc2nc(C)n(Cc3ccccc3Cl)c(=O)c2c1,?
CN(C)c1ccc(C2C3=C(CCCC3=O)OC3=C2C(=O)CCC3)cc1,-5.6%
O=C(O)C1CC=CCC1C(=O)NCCc1ccccc1 (stereo unspecified),1.6%
CCOC(=O)CSc1nnc(-c2ccco2)n1C,2.6%
Nc1ccc(-n2ccnc2)cc1,0.3%
O=C(c1ccco1)N1CCN(C2CC(=O)N(c3ccc4c(c3)OCO4)C2=O)CC1 (stereo unspecified),-13.9%
C[C@@H]1CC[C@@H]2C(=O)N3[C@@H](CC[C@@H](C)[C@@H]3c3ccc(-c4ccco4)cc3)C(=O)N2[C@H]1c1ccc(-c2ccco2)cc1,?
CC1(C)CC(=O)C(C#N)=C(NCCCO)C1,3.8%
NC(=O)NC(=O)Nc1ccccc1Cl,3.8%
O=c1c(O)c(-c2ccc(O)cc2)oc2ccccc12,25.1µM*

# Other compounds.
SMILES,HSD17B inhib
N#Cc1nc(-c2cccs2)oc1NCC1CCCO1 (stereo unspecified),31.6µM*
Fc1ccccc1OCCSc1nc2ccccc2o1,5.2%
CCOC(=O)N1CCC(n2c(SCC(=O)Nc3ccccc3OC)nc3ccccc3c2=O)CC1,19.6%
COCCn1c(=O)cnc2cnc(OCc3ccccc3)nc21,8.7%
COc1ccc2c(c1)CCc1c(C(=O)NCc3cccnc3)noc1-2,?
CCOc1ccc(-n2c(SCC(N)=O)nc3c([nH]c4ccccc43)c2=O)cc1,-4.1%
CCC1Oc2ccccc2N(CC(=O)Nc2ccc3c(c2)OCCO3)C1=O (stereo unspecified),-1.5%
O=C(CCCN1C(=O)c2ccccc2C1=O)NCc1cccnc1,4.1%
[Cu].[O-]/N=C1/C(=[OH+])Nc2ccccc21.[O-]Nc1c(O)[nH]c2ccccc12,2.9%[11.4 µM]
COc1cc(C2CC(=O)NC(SCC(=O)Nc3ccccc3C)=C2C#N)ccc1O (stereo unspecified),6.0%
CCn1c(SCC(=O)Nc2ccc(NC(=O)c3ccco3)c(OC)c2)nc2ccccc2c1=O,0.794µM*
O=c1cc(N2CCN(Cc3ccccc3)CC2)[nH]c(=O)n1-c1cccc(C(F)(F)F)c1,-7.1%
CCN(Cc1cc2cccc(C)c2[nH]c1=O)C(=O)c1ccccc1OC,10.4%
O=C(Nc1cccc(NC(=O)c2cccs2)c1)c1ccco1,2.9%
COc1ccc(NC(=O)N(C2CCCCC2)C2CCN(C(C)C)CC2)c(OC)c1,-1.3%
COCCCN1C(=O)C(O)=C(C(C)=O)C1c1cccc(F)c1 (stereo unspecified),-4.3%
C[N+](C)(CCCCCC[N+](C)(C)CCCN1C(=O)c2cccc3cccc(c23)C1=O)CCCN1C(=O)c2cccc3cccc(c23)C1=O,25.1µM*

# Reformatted with tabs: part of the list above.
mol	HSD17B inhib
O=c1c(O)c(-c2ccc(O)cc2)oc2ccccc12	25.1µM*
N#Cc1nc(-c2cccs2)oc1NCC1CCCO1 (stereo unspecified)	31.6µM*
Fc1ccccc1OCCSc1nc2ccccc2o1	5.2%
CCOC(=O)N1CCC(n2c(SCC(=O)Nc3ccccc3OC)nc3ccccc3c2=O)CC1	19.6%
COCCn1c(=O)cnc2cnc(OCc3ccccc3)nc21	8.7%
COc1ccc2c(c1)CCc1c(C(=O)NCc3cccnc3)noc1-2	?
CCOc1ccc(-n2c(SCC(N)=O)nc3c([nH]c4ccccc43)c2=O)cc1	-4.1%
CCC1Oc2ccccc2N(CC(=O)Nc2ccc3c(c2)OCCO3)C1=O (stereo unspecified)	-1.5%
O=C(CCCN1C(=O)c2ccccc2C1=O)NCc1cccnc1	4.1%
[Cu].[O-]/N=C1/C(=[OH+])Nc2ccccc21.[O-]Nc1c(O)[nH]c2ccccc12	2.9%[11.4 µM]
COc1cc(C2CC(=O)NC(SCC(=O)Nc3ccccc3C)=C2C#N)ccc1O (stereo unspecified)	6.0%
CCn1c(SCC(=O)Nc2ccc(NC(=O)c3ccco3)c(OC)c2)nc2ccccc2c1=O	0.794µM*
O=c1cc(N2CCN(Cc3ccccc3)CC2)[nH]c(=O)n1-c1cccc(C(F)(F)F)c1	-7.1%
CCN(Cc1cc2cccc(C)c2[nH]c1=O)C(=O)c1ccccc1OC	10.4%
O=C(Nc1cccc(NC(=O)c2cccs2)c1)c1ccco1	2.9%
COc1ccc(NC(=O)N(C2CCCCC2)C2CCN(C(C)C)CC2)c(OC)c1	-1.3%
COCCCN1C(=O)C(O)=C(C(C)=O)C1c1cccc(F)c1 (stereo unspecified)	-4.3%
C[N+](C)(CCCCCC[N+](C)(C)CCCN1C(=O)c2cccc3cccc(c23)C1=O)CCCN1C(=O)c2cccc3cccc(c23)C1=O	25.1µM*

# These rows are one share of the data, so the mix of outcomes need not match the whole.
